LASV entry inh – blocks Lassa virus binding to or entry into cells; Lassa virus pseudotype entry inhibition, cell reporter; control for the full effect not named in the record; Potency, µM (highest dose often 37.9 µM), for the others: at the highest dose activity change, negative = inhibition, usual class: inhibitors; actives 1.2% (n = 300,000); AID 540256; active means well fitted inhibition curve with a large enough effect; inconclusive means small, poorly fitted or top-dose-only effect, or effect the other way; inactive means flat fitted curve, though single readings scatter; tested in HEK293 cells; note: % is set by controls: 0 for no effect and ±100 for the full control effect; nearly all actives have a fitted effect of over 50% in size; luciferase read-out
Cruzain Triton – cruzain (T. cruzi) inhibition with detergent | P25779 | purified cruzain, Z-FR-AMC fluorescence, 0.01% Triton | Potency, µM, for inactives: max response, negative = inhibition, actives largely listed as inhibitors | actives 0.43% (n = 200,000) | AID 1478; active = well fitted curve in the direction sought with a large enough effect; inconclusive = small, poorly fitted or top-dose-only effect, or another doubt; inactive = no such curve, though single readings can be large; an effect the other way counts as inactive or inconclusive;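 note: plate controls were neutral wells for no effect and buffer without enzyme for full effect; nearly all actives have a fitted effect of over 40% in size; top concentration of the series not given in the record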
Target sequence (P25779 123-467 limits assumed): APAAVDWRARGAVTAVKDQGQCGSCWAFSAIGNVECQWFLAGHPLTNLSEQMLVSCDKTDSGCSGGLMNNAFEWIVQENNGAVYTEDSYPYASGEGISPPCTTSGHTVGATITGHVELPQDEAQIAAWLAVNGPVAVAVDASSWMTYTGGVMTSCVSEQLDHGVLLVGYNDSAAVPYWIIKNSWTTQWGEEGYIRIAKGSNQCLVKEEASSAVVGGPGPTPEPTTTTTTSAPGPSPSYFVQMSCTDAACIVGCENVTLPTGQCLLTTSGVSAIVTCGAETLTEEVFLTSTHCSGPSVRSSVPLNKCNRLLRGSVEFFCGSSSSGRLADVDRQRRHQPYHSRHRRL
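In this qHTS format, compounds are incubated with 1.5 nM cruzain for 15 min at room temperature before 2 uM Z-FR-AMC is added. Release of AMC is followed at 360/450 nm, and progress is taken as the 60 s fluorescence difference.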
RE007 growth inh – less growth of the S. pombe RE007 Vpr strain | actives 0.21% (n = 360,000) | AID 651644 | Potency, µM (titrated, usually from 92.2 µM), without a hit: at the top dose activity change, negative = less growth | S. pombe RE007 Vpr strain, BacTiter-Glo ATP luminescence, 24 h; control for the full effect not named in the record; active = well fitted falling curve with a large enough effect; inconclusive = small, poorly fitted or top-dose-only effect; inactive = no such curve, though single readings can be large or run the other way;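 note: % is set by controls: 0 for no effect and ±100 for the full control effect; nearly all actives have a fitted effect of over 50% in size; the assay follows cell death caused by Vpr and the record does not say whether a fall means rescue or toxicity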
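Fission yeast strain RE007, carrying one chromosomally integrated HIV-1 vpr copy, was seeded at OD 0.01 in PMG+AL medium with 23 nL pinned compound. After 24 h at 30 °C and 99% humidity, viability was read by BacTiter-Glo luminescence.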
NS1 inh – blocks influenza NS1 protein function; S. cerevisiae slowed by influenza A NS1, growth recovery by OD600; Potency, µM (series often up to 46.1 µM), for the others: top-dose activity, positive = more growth; actives 0.4% (n = 270,000); AID 2326; note: actives are rising curves; nearly all actives have a fitted effect of over 50% in size
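Growth recovery, yeast-based: influenza A NS1 expressed in S. cerevisiae causes slow growth, and suppressors are detected by OD600. The parent strain without NS1 is used as positive control.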
2A StopGo – lowers the luciferase signal of an FMDV 2A StopGo reporter; human cells with a luciferase reporter of 2A StopGo recoding; control for the full effect not named in the record; actives 1.2% (n = 410,000); Potency, µM (doses to about 57.9 µM), without a hit: at the top dose signal change, negative = less light; active = well fitted falling curve with a large enough effect; inconclusive = small, poorly fitted or top-dose-only effect; inactive = no such curve, though single readings can be large or run the other way; tested in HEK293T cells; note: % is set by controls: 0 for no effect and ±100 for the full control effect; nearly all actives have a fitted effect of over 45% in size; luciferase light after 4 h
SARS PLP yeast – blocks SARS-CoV papain-like protease in a yeast assay | actives 0.19% (n = 330,000) | S. cerevisiae expressing SARS-CoV PLpro, growth rescue; control for the full effect not named in the record | Potency, µM (doses to about 32.9 µM), for the others: at the top dose activity, positive = growth rescue; note: 0% is about no effect; nearly all actives have a fitted effect of over 55% in size; growth read by luminescence after 48 h
Cruzain inh noDet – blocks cruzain activity in detergent-free assay | P25779 | purified cruzain, Z-FR-AMC fluorescence, no detergent | Potency, µM, for inactives: max response, negative = inhibition, actives largely listed as inhibitors | actives 2.3% (n = 200,000) | AID 1476; active = well fitted curve in the direction sought with a large enough effect; inconclusive = small, poorly fitted or top-dose-only effect, or another doubt; inactive = no such curve, though single readings can be large; an effect the other way counts as inactive or inconclusive;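 note: plate controls were enzyme without inhibitor for no effect and buffer without enzyme for full effect; nearly all actives have a fitted effect of over 40% in size; top concentration of the series not given in the record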
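Detergent-free condition (0.00005% Triton X-100) in acetate buffer pH 5.5 with DTT. 1.5 nM enzyme and compound were pre-mixed 15 min, then 2 uM Z-FR-AMC substrate added; reaction progress from fluorescence change between first and third reads (60 s).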
Marburg entry inh – blocks Marburg virus binding to or entry into cells; Marburg virus pseudotyped entry inhibition, cell reporter; control for the full effect not named in the record; about a third of the inactives were read at about 46 µM; Potency, µM (doses to about 37.8 µM), inactives show at the top dose activity change, negative = inhibition, usual class: inhibitors; actives 1.8% (n = 300,000); active = well fitted inhibition curve with a large enough effect; inconclusive = small, poorly fitted or top-dose-only effect, or effect the other way; inactive = flat fitted curve, though single readings scatter; tested in HEK293 cells; about a fifth of its hits are not listed in these tables; note: % is set by controls: 0 for no effect and ±100 for the full control effect; luciferase read-out
An asterisk follows results filed as active; ? = inconclusive; . = not tested or not shown; & = joins results of further samples; [ ] = dose if it differs, or a comment. Unless noted, calls come from the whole dose curve; as a rule, active means well fitted rising curve with a large enough effect; inconclusive means small, poorly fitted or top-dose-only effect; inactive means no such curve, though single readings can be large or run the other way. Potency is the fitted concentration of half-maximal effect.

SMILES | LASV entry inh | Cruzain Triton | RE007 growth inh | NS1 inh | 2A StopGo | SARS PLP yeast | Cruzain inh noDet | Marburg entry inh
CCOC(=O)c1cnn(C)c1NC(=O)c1ccc([N+](=O)[O-])cc1 | -19% | . | -13% | 6% | -5% | 0% | . | -9%[46.1 µM]
Cc1ccccc1C(=O)NC(=S)Nc1ccccc1C(=O)O | 16%[46.1 µM] | . | 28% | 0% | 20% | 0% | . | 11%[46.1 µM]
Cc1nn(CCCC(=O)N2CCN(c3ccc(F)cc3)CC2)c(C)c1[N+](=O)[O-] | -6% | . | ? | . | -19% | -8% | . | 4%[46.1 µM]
Cc1ccc(-c2nc3ccccc3c(C(=O)NCc3cccs3)c2C)cc1 | ? | -8.0% | -21% | -65% | -25% | -25% | -20% | 0%
Cc1cccc(NC(=S)N2CCN(c3ccccn3)CC2)c1 | . | . | 6% | 4% | 3% | 0% | . | .
O=C(CCc1nc2ccccc2c(=O)[nH]1)NCCN1C(=O)S/C(=C\c2ccc(Cl)cc2Cl)C1=O | -16% | . | -24% | . | ? | 2% | . | ?
CCOC(=O)C1CCN(C(C(=O)Nc2ccc3c(c2)OCCO3)c2ccccc2)CC1 (stereo not drawn) | ? | 2.9% | 0% | -18% | 13% | -2% | -8% | 1%
Cc1ccc(NC(=O)C2CCCN(c3ncnc4c3nc3n4CCCCC3)C2)nc1 (stereo not drawn) | 29%[46.1 µM] | . | -4% | -47% | -9% | 7% | . | ?
O=C1c2c(O)cccc2Cc2cccc(O)c21 | . | 1.1%&-1.8% | 0% | . | -17%&-6% | 1% | ? | .
COc1cc2c(cc1OC)C(c1cccs1)N(C(=O)c1ccc(S(=O)(=O)N(C)C)cc1)CC2 (stereo not drawn) | . | . | 1% | -3% | -10% | 3% | . | .
S=C(c1cccs1)N1CCN(c2ccccc2)CC1 | 22% | . | -16% | . | -16% | . | . | 16%
COc1ccc(C(=O)/C=C/c2cccs2)c(OC(=O)N2CCOCC2)c1 | ? | -3.7% | 10% | -7% | ? | -9% | 8% | -8%[46.1 µM]
NC(=O)C1CCN(C(=O)CN2CCc3ccccc32)CC1 | -5% | 1.8% | 3% | ? | 0% | -2% | ? | ?
CCc1ccc2oc(-c3cc(NC(=O)c4cccnc4)cc(C)c3O)nc2c1 | 12%[46.1 µM] | 0.8% | . | . | 36%[activator] | . | -2% | 12%[46.1 µM]
NC(=O)CC(NC(=O)Cc1cccc2ccccc12)c1ccc(NC2CCCCCCC2)c([N+](=O)[O-])c1 (stereo not drawn) | . | . | 4% | ? | -9% | 3% | . | .
COc1ccc(NC(=O)C2CCCC2)cc1 | -14%[46.1 µM] | . | 12% | -7% | 0% | 7% | . | ?
CCN(CC)S(=O)(=O)c1ccc(NC(=O)Cn2c(=O)oc3ccccc32)cc1 | 10% | 4.6% | 6% | 1% | ? | 2% | 25% | ?
O=C1C=CC(=O)N1CCCCCCCCCCN1C(=O)C=CC1=O | ? | . | -8% | . | 20µM* | . | . | ?
Cc1ccc(C(C)C)c(OCCn2c(=O)oc3ccccc32)c1 | ? | -4.9% | 50% | -57% | ? | -6% | -1% | ?
CC1CCN(S(=O)(=O)N2CCC(C(=O)NCCN3CCOCC3)CC2)CC1 | -27% | 2.6% | -1% | 2% | . | 10% | 8% | -3%
CC1C=CCC2C(=O)N(c3cccc(C(=O)N4CCN(c5ccc(F)cc5)CC4)c3)C(=O)C12 (stereo not drawn) | 12%[14.3 µM] | -3.4% | 6% | 1% | ? | -3% | -4% | -7%
Cc1ccc(C)c(S(=O)(=O)C(C#N)c2nc3ccccc3nc2N2CC(C)OC(C)C2)c1 (stereo not drawn) | -1% | -15% | 2% | -10% | ? | -16% | ? | ?
C=CCOc1ccc2c(c1)c(S(=O)(=O)c1ccc(C)cc1)cn2COC | ? | -6.9% | 1% | -31% | . | 5% | 14% | ?
COc1ccc(OC)c(NC=C2C(=O)OC(C)(C)OC2=O)c1 | 30% | -1.8% | 4% | -11% | 2% | 2% | -3% | -1%
CCN(C(=O)COC(=O)c1cccnc1Nc1ccccc1F)C1CCS(=O)(=O)C1 (stereo not drawn) | 20% | -7.1% | -3% | -8% | 32%[activator] | -3% | ? | ?
(list continues)
SMILES | LASV entry inh | Cruzain Triton | RE007 growth inh | NS1 inh | 2A StopGo | SARS PLP yeast | Cruzain inh noDet | Marburg entry inh
Cc1ccc(NCCC(=O)c2cccc([N+](=O)[O-])c2)cc1 | 3% | -3.9% | 5.6µM* | 21% | 29% | -29% | -19% | 3%
CCOc1ccc(S(=O)(=O)N2CCOCC2)cc1NC(=O)Cc1c(F)cccc1Cl | 5% | . | -12% | . | 11% | 3% | . | 8%[46.1 µM]
COc1ccc(OC)c(NC(=O)C2CCN(C(=O)C3CC(=O)N(c4ccc(C)cc4)C3)CC2)c1 (stereo not drawn) | . | . | -11% | -5% | -5% | 12% | . | 11%[46.1 µM]
CN1CCc2ccccc2C1C1CCNCC1 (stereo not drawn) | ? | 5.1% | -3% | 0% | -23% | 0% | 2% | ?
Cc1ccc2nc(-c3ccc(O)cc3)c(Nc3ccc4c(c3)OCO4)n2c1 | -22%[46.1 µM] | -12% | . | . | -1% | . | ? | 4%[46.1 µM]
Cc1nn(CCc2nc(-c3ccco3)cs2)c2[nH]c(=O)cc(C(F)(F)F)c12 | 10% | -20% | -6% | -76% | . | 2% | ? | -1%&-3%
CC1=C(C(N)=O)C(c2ccccc2F)n2nc(-c3ccc(Cl)cc3)nc2N1 (stereo not drawn) | 18%[46.1 µM] | -3.7% | . | . | -23% | . | -1% | -29%[46.1 µM]
N=C(N)SCc1ccc(Cl)c2ccccc12 | 9%[46.1 µM] | . | -5% | . | 0% | . | . | -28%
O=C1CC(N2CCOCC2)C(=O)N1c1cccc(Cl)c1 (stereo not drawn) | -4% | -1.9% | ? | -6% | 10% | -25% | -2% | 32%
COc1ccc(N2CCN(C(CNC(=O)C(=O)NCCCO)c3ccco3)CC2)cc1 (stereo not drawn) | . | . | 20% | -4% | -15% | 8% | . | .
CCN(CC(=O)Nc1cccc(S(=O)(=O)N2CCOCC2)c1)Cc1ccccc1 | -18%[46.1 µM] | . | 11% | . | 9% | 7% | . | 0%
CCOC(=O)Cn1c(=O)oc2cc(S(=O)(=O)N3CCN(c4cc(C)ccc4C)CC3)ccc21 | ? | 0.5% | . | . | -17% | . | -2% | -11%[46.1 µM]
CC(C)(CN1CCN(C(c2ccccc2)c2ccccc2)CC1)NS(=O)(=O)c1ccccc1 | ? | . | -9% | -17% | -25% | -8% | . | ?
Cc1ccc(S(=O)(=O)N(C)C)cc1-n1c(SCC(=O)Nc2ccc(F)cc2Cl)nc2ccccc2c1=O | ? | -1.7% | -3% | ? | -28% | 19% | ? | ?
CC(=Nc1ccccc1)C1=C(O)COC1=O | -4% | 1.7% | -7% | 6% | . | ? | 6% | 15%
O=C(CC(c1ccccc1)c1ccccc1)Nc1ccc(O)cc1 | -26% | . | 0% | 9% | -16% | 3% | . | 1%
O=C(N/N=C/c1ccc(-c2ccc(Br)cc2)o1)c1ccc2c(c1)OCO2 | ? | . | -6% | . | 6% | -1% | . | -18%[46.1 µM]
c1ccc(-c2cc(-c3nc(-c4ccccn4)no3)c3ccccc3n2)cc1 | ? | . | 1% | -14% | ? | . | . | 14%
O=C(O)CCn1nnc(-c2cccs2)n1 | 7% | 8.4% | -2% | -14% | 13% | 10% | -10% | 4%
CCOc1cc(C2CC(=O)NC(SCC)=C2C#N)ccc1O (stereo not drawn) | . | 1.4% | 12% | 4% | 3% | 5% | -1% | .
CN1CCN(C(c2cccnc2)c2ccc3cccnc3c2O)CC1 (stereo not drawn) | 7% | -0.9% | -12% | -62% | -17% | -10% | -4% | 22%
Cc1cc2c(cc1C)CSC(c1ccc(O)cc1)SC2 | ? | 3.6% | -3% | -11% | -10% | -6% | 11% | -1%
O=C(COc1ccc(Cl)cc1)Nc1ccccc1C(=O)OCc1cc(=O)n2ccsc2n1 | ? | 0.3% | . | . | -13% | . | 0% | .
CCCCN(CC)CCCNC(=O)c1ccc2c(c1)NC(=O)CN2C | 1%[46.1 µM] | -0.5% | . | . | -7% | . | -6% | .
COc1cccc(/C=N/N2CCN(C3c4ccccc4-c4ccccc43)CC2)c1O | . | . | -4% | -3% | -23% | -4% | . | .
(list continues)
SMILES | LASV entry inh | Cruzain Triton | RE007 growth inh | NS1 inh | 2A StopGo | SARS PLP yeast | Cruzain inh noDet | Marburg entry inh
O=C(NCC1CCCO1)c1cc2cc(Cl)ccc2[nH]1 (stereo not drawn) | 0% | . | -12% | 3% | 31%[activator] | -13% | . | ?
COc1ccc(-c2csc(NC(=S)NC(=O)c3ccco3)n2)cc1Br | . | . | -3% | 9% | -10% | 0% | . | .
CCn1c(COc2ccccc2C)nnc1SCC(=O)N1CCN(c2ccccc2)CC1 | -29% | -1.0% | -11% | -9% | . | -5% | ? | ?
Nc1cc(Cl)ccc1Nc1ccncc1 | 31%[46.1 µM] | . | 11% | 3% | 13% | -3% | . | -30%[46.1 µM]
CCOC(=O)C1CCN(S(=O)(=O)c2ccc(Cl)nc2)CC1 | . | . | 6% | 1% | -15% | -1% | . | .
CCc1ccc(NC(=O)CS(=O)CC(=O)NCCCc2ccccc2)cc1 (stereo not drawn) | -12% | -4.6% | -4% | 10% | . | 0% | ? | 0%
O=C(CC1NCCNC1=O)Nc1cc(Cl)cc(Cl)c1 (stereo not drawn) | 17% | -0.7% | 5% | 9% | 0% | 0% | 2% | 0%
CCOC(=O)CCCC(=O)N1CCOCCOCCOCC1 | 11% | . | -8% | 2% | 7% | 1% | . | -2%
Cc1ccn2cc(-c3cnoc3C)nc2c1 | 31% | 2.4% | -8% | -16% | 30% | -4% | 2% | 0%
CN(C)S(=O)(=O)N(CC(=O)Nc1ccccc1)c1ccccc1 | -3% | -0.5% | -6% | 4% | -20% | 0% | 16% | -3%

Compound activity as filed in PubChem BioAssay.
